Cruzain inh Det: inhibitors of Trypanosoma cruzi cruzain with detergent; P25779; purified cruzain, Z-FR-AMC fluorescence, 0.01% Triton; Potency, µM, without a hit: max response, negative = inhibition, most hits filed as inhibitors; 0.43% of 200,000 active;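 note: plate controls were neutral wells for no effect and buffer without enzyme for full effect; nearly all actives have a fitted effect of over 40% in size; top concentration of the series not given in the record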
Target sequence (P25779 123-467 limits assumed): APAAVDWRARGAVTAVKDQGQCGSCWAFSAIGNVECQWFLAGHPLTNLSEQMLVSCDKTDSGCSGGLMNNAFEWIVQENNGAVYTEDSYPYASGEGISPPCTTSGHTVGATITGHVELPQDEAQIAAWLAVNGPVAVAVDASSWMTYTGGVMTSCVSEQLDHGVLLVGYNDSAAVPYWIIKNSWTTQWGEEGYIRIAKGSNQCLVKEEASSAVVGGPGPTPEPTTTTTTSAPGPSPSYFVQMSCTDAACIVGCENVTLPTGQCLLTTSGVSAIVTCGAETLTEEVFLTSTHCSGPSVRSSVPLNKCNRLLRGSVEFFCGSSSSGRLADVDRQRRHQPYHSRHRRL
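Z-FR-AMC hydrolysis (2 uM substrate) by cruzain (1.5 nM) monitored kinetically at ex 360/em 450 nm after 15 min room-temperature compound exposure; 0.01% Triton X-100, pH 5.5, 5 mM DTT.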
SARS PLP yeast: inhibitors of SARS-CoV papain-like protease in yeast | AID 485353 | S. cerevisiae expressing SARS-CoV PLpro, growth rescue; control for the full effect not named in the record | Potency, µM (top dose mostly 32.9 µM), for inactives: at the top dose activity, positive = growth rescue | 0.19% of 330,000 active; active means well fitted rising curve with a large enough effect; inconclusive means small, poorly fitted or top-dose-only effect; inactive means no such curve, though single readings can be large or run the other way; note: 0% is about no effect; nearly all actives have a fitted effect of over 55% in size; growth read by luminescence after 48 h
RE007 growth inh: less growth of the S. pombe RE007 Vpr strain. S. pombe RE007 Vpr strain, BacTiter-Glo ATP luminescence, 24 h; control for the full effect not named in the record. Potency, µM (titrated, usually from 92.2 µM), without a hit: at the highest dose activity change, negative = less growth. 0.21% of 360,000 active. AID 651644; active = well fitted falling curve with a large enough effect; inconclusive = small, poorly fitted or top-dose-only effect; inactive = no such curve, though single readings can be large or run the other way;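 note: % is set by controls: 0 for no effect and ±100 for the full control effect; nearly all actives have a fitted effect of over 50% in size; the assay follows cell death caused by Vpr and the record does not say whether a fall means rescue or toxicity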
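Fission yeast RE007 carrying one integrated HIV-1 vpr copy, seeded at OD 0.01 in PMG+AL medium with 23 nL pinned compound. Grown 24 h at 30 degrees; viability read by BacTiter-Glo luminescence after 5 min.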
Cruzain inh noDet: inhibitors of Trypanosoma cruzi cruzain without detergent; P25779; purified cruzain, Z-FR-AMC fluorescence, no detergent; Potency, µM, for inactives: max response, negative = inhibition, usual class: inhibitors; 2.3% of 200,000 active; AID 1476;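 note: plate controls were enzyme without inhibitor for no effect and buffer without enzyme for full effect; nearly all actives have a fitted effect of over 40% in size; top concentration of the series not given in the record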
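Purified cruzain at 1.5 nM, pre-incubated 15 min with compound at room temperature in 100 mM sodium acetate pH 5.5, 5 mM DTT, 0.00005% Triton X-100. Reaction started with 2 uM Z-FR-AMC; AMC fluorescence increase over 60 s gives rate.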
Lassa entry inh: inhibitors of Lassa virus binding or cell entry; Lassa virus pseudotype entry inhibition, cell reporter; control for the full effect not named in the record; 1.2% of 300,000 active; AID 540256; Potency, µM (doses to about 37.9 µM), for the others: top-dose activity change, negative = inhibition, usual class: inhibitors; active means well fitted inhibition curve with a large enough effect; inconclusive means small, poorly fitted or top-dose-only effect, or effect the other way; inactive means flat fitted curve, though single readings scatter; tested in HEK293 cells; note: % is set by controls: 0 for no effect and ±100 for the full control effect; nearly all actives have a fitted effect of over 50% in size; luciferase read-out
NS1 inh: inhibitors of influenza NS1 protein function | S. cerevisiae slowed by influenza A NS1, growth recovery by OD600 | AID 2326 | 0.4% of 270,000 active | Potency, µM (doses to about 46.1 µM), for inactives: at the top dose activity, positive = more growth; active means well fitted rising curve with a large enough effect; inconclusive means small, poorly fitted or top-dose-only effect; inactive means no such curve, though single readings can be large or run the other way; note: nearly all actives have a fitted effect of over 50% in size
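S. cerevisiae expressing influenza A NS1, grown in glucose, washed, then diluted 1:100 into pH 6.0 -URA galactose medium with 23 nl compound. Growth recovery read as OD600; NS1-free strain serves as control.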
Marburg entry inh: blocks Marburg virus binding to or entry into cells; Marburg virus pseudotyped entry inhibition, cell reporter; control for the full effect not named in the record; about a third of the inactives were read at about 46 µM; Potency, µM (doses to about 37.8 µM), without a hit: at the highest dose activity change, negative = inhibition, hits mostly inhibitors; 1.8% of 300,000 active; AID 540276; active = well fitted inhibition curve with a large enough effect; inconclusive = small, poorly fitted or top-dose-only effect, or effect the other way; inactive = flat fitted curve, though single readings scatter; tested in HEK293 cells; about a fifth of its hits are not listed in these tables; note: % is set by controls: 0 for no effect and ±100 for the full control effect; luciferase read-out
2A StopGo: FMDV 2A StopGo reporter, luciferase signal; human cells with a luciferase reporter of 2A StopGo recoding; control for the full effect not named in the record; Potency, µM (titrated, usually from 57.9 µM), without a hit: at the top dose signal change, negative = less light; 1.2% of 410,000 active; AID 1159524; active = well fitted falling curve with a large enough effect; inconclusive = small, poorly fitted or top-dose-only effect; inactive = no such curve, though single readings can be large or run the other way; tested in HEK293T cells; note: % is set by controls: 0 for no effect and ±100 for the full control effect; nearly all actives have a fitted effect of over 45% in size; luciferase light after 4 h
Numbers without * were called inactive; ? = inconclusive; nt = not tested or not shown; [ ] = remark or other dose. Unless noted, calls come from the whole dose curve; as a rule, active = well fitted curve in the direction sought with a large enough effect; inconclusive = small, poorly fitted or top-dose-only effect, or another doubt; inactive = no such curve, though single readings can be large; an effect the other way counts as inactive or inconclusive. Potency is the fitted concentration of half-maximal effect.

SMILES | Cruzain inh Det | SARS PLP yeast | RE007 growth inh | Cruzain inh noDet | Lassa entry inh | NS1 inh | Marburg entry inh | 2A StopGo
CCOC(=O)c1ccc(Oc2nc(N(C)C)nc(N(C)C)n2)cc1 | -1.2% | -13% | -18% | -2% | ? | -4% | -11% | -21%
CC1(C)CC(=O)c2c(O)cc(OCC(=O)N3CCN(c4ccc(F)cc4)CC3)cc2O1 | nt | -3% | 6% | nt | 0%[46.1 µM] | -20% | -24%[46.1 µM] | -13%
CCCC(=O)Nc1ccc2c(c1)nc(CN1CCN(C(=O)OCC)CC1)n2CC | nt | 1% | 6% | nt | nt | -3% | nt | -18%
O=c1c2ccccc2nc(Cc2cccc([N+](=O)[O-])c2)n1-c1ccc(O)cc1 | nt | 0% | -22% | nt | 0% | 3% | 3%[46.1 µM] | -29%
Cc1csc(SCC(=O)Nc2ccc(S(=O)(=O)N3CCCC3)cc2)n1 | 10% | 2% | -2% | 2% | 9% | 0% | 7% | -33%
CC(=C/c1ccco1)/C=N/NC(=O)c1ccncc1 | nt | -2% | -6% | nt | 12% | -1% | -3%[14.2 µM] | 35%[activator]
CCOC(=O)C1CCN(C(=O)COC(=O)CSc2ccc([N+](=O)[O-])cc2)CC1 | nt | -4% | 19% | nt | -2% | nt | 3% | -9%
COc1ccc2nc(N3CCCCC3)c(C#N)cc2c1 | -3.2% | -7% | ? | -1% | -18% | -17% | -15% | 25%
CC1(C)CC(=O)C/C(=N/NC(=O)COc2ccc3ccccc3c2Br)C1 | nt | 2% | -3% | nt | nt | 17% | nt | 15%
CCN(CC)c1ccc(C2CC(=O)Nc3cc(OC)c(OC)cc32)cc1 (stereo not given) | 4.6% | 2% | 9% | -4% | ? | ? | -23% | -22%
Cc1ccc(Nc2nnc(SCC(=O)Nc3cccc(S(=O)(=O)NC4=NCCCCC4)c3)s2)c(C)c1 | -5.6% | 14% | -16% | -1% | ? | ? | ? | 32µM*
CC(Cc1ccsc1)NC(=O)CCc1nnc(CCc2ccccc2)o1 (stereo not given) | nt | 0% | -19% | nt | 6% | 0% | 1%[46.1 µM] | 5%
Cc1ccc(NC(=O)COC(=O)CN2C(=O)COc3ccccc32)cc1 | 1.5% | 6% | -19% | 3% | 16% | -18% | 3% | -11%
COc1cc(NC(=O)CSc2nc(-c3ccc(C(C)C)cc3)no2)cc(OC)c1 | 0.7% | nt | nt | 5% | ? | nt | nt | 0%
Cc1cc(C)cc(C(=O)Nc2nnc(SCC(=O)NCC3CCCO3)s2)c1 (stereo not given) | nt | 0% | -11% | nt | -5% | -15% | 29% | -2%
Cc1c(/C(O)=C2\C(=O)C(=O)N(CCCN(C)C)C2c2ccncc2)cnn1-c1ccccc1 (stereo not given) | -1.3% | 1% | nt | -9% | nt | 2% | nt | nt
Fc1ccccc1/C=N/n1cnnc1 | 5.4% | 2% | 9% | -11% | 22% | 0% | 7% | -5%
O=C1OC(c2ccccc2)C(O)=C1c1ccccc1 (stereo not given) | nt | nt | -14% | nt | -3% | nt | -1% | 12%
C/C=C/c1ccc(OCc2cc(=O)n3cc(C)ccc3n2)c(OC)c1 | nt | -1% | -18% | nt | nt | 2% | nt | -10%
COc1ccc(C(=O)N2CCN(c3ccc(N4CCOCC4)nn3)CC2)cc1OC | nt | 4% | -11% | nt | 10% | nt | 1% | -14%
Cc1cc(S(=O)(=O)NCC2CC2)c(Cl)cc1Cl | nt | 0% | 0% | nt | 4% | -3% | -1% | 88%[activator]
O=C(COC(=O)CCC1CCCC1)Nc1ccc(Cl)cn1 | 4.2% | -2% | 1% | -9% | -7% | -7% | -7% | 10%
CCOC(=O)N1CCC(NC(=O)C(NC(=O)C2CCC(C)CC2)C(C)CC)CC1 (stereo not given) | -4.8% | 5% | nt | 23% | nt | -6% | 3% | nt
CN1CCN(C(=O)c2ccc(OCCOc3ccccc3)cc2)CC1 | nt | -3% | 8% | nt | nt | 9% | nt | 6%
CCC(C)c1ccc(OCC(=O)Nc2ccc(CN3CCOCC3)cc2)cc1 (stereo not given) | nt | -9% | -17% | nt | -7% | -32% | -8% | ?
CCc1c(C)nc2ncnn2c1NCCc1ccc(OC)c(OC)c1 | -0.4% | -6% | -8% | -4% | -25% | 1% | -1% | ?
COc1ccc(OCCCC(=O)OC(C)C(=O)Nc2ccc(S(N)(=O)=O)cc2)cc1 (stereo not given) | nt | -4% | -6% | nt | 10% | nt | 26%[46.1 µM] | ?
CCOC(=O)c1[nH]c2ccc(F)cc2c1NC(=O)c1ccccc1C(=O)O | nt | -1% | -18% | nt | nt | 0% | nt | 25%
C/C=C(\C)CN1CCN(c2ccccc2)CC1 | 0.8% | 0% | 7% | -1% | 4% | -1% | 7% | 9%
Cc1ccc(NC(=O)C(C)Sc2nc(-c3ccccc3)c(C#N)c(=O)[nH]2)c(C)c1 (stereo not given) | -4.3% | nt | nt | -12% | 0%[46.1 µM] | nt | 0%[46.1 µM] | -6%
CCOC(=O)c1sc(NC(=O)C(CC)OC(=O)C(CC(C)C)NC(=O)c2ccccc2)nc1C (stereo not given) | 10µM* | -4% | -3% | -7% | 4% | -35% | 1% | -14%
CCN1CCCC1CNC(=O)COc1cc(=O)n(C)c2ccccc12 (stereo not given) | 0.9% | 0% | 15% | -2% | 2% | 6% | -24% | -8%
O=C(COc1ccc(S(=O)(=O)N2CCOCC2)cc1)NCc1ccccn1 | nt | -6% | 4% | nt | 8% | 7% | -2% | 0%
N=c1scc(-c2ccccc2)n1/N=C/c1ccco1 | -8.2% | 9% | nt | ? | -19% | 26% | ? | 33%[activator]
Cc1ccc(C)c(NC(=O)CCc2nc(-c3ccc(C(C)(C)C)cc3)no2)c1 | -14% | nt | nt | -8% | -4%[46.1 µM] | nt | -14%[46.1 µM] | -12%
C=C1CCc2c([nH]c3ccc(OCC(C)C)cc23)C1=O | nt | -3% | -6% | nt | ? | -4% | ? | ?
Cc1cc(-c2nnc(SCC(=O)Nc3cccc(Cl)c3)n2N)n[nH]1 | nt | 1% | -15% | nt | -22%[46.1 µM] | 1% | 11%[46.1 µM] | -9%
CCC(=O)Nc1cc(-c2cccc(C)c2)nn1-c1ccccc1 | 1.1% | nt | nt | -4% | -1%[46.1 µM] | nt | nt | 11%
C=CCOC(=O)C1=C[C@@H](c2ccc(C(F)(F)F)cc2)[C@H](CCCO)[C@@H](OCC)O1 | nt | 0% | 8% | nt | nt | 7% | nt | ?
Cc1nc(CSc2n[nH]c(=O)n2-c2cccc(F)c2)cs1 | nt | 0% | -18% | nt | 5%[46.1 µM] | 3% | 11%[46.1 µM] | 13%
CCOC(=O)C(O)(c1cn(C)c2ccccc12)C(F)(F)F (stereo not given) | 1.7% | -7% | 57% | 5% | ? | 4% | ? | -7%
Cc1ccc(-c2nc(-c3cccnc3)sc2CC(=O)Nc2ccc3nc(C)sc3c2)cc1 | -3.4% | 2% | 4% | 14% | -25% | 12% | ? | -14%
Cc1noc(/C=C/c2ccccc2F)c1S(=O)(=O)N1CCC(C(=O)N2CCOc3ccccc32)CC1 | -0.2% | nt | nt | -1% | 23%[46.1 µM] | nt | nt | -4%
COc1cc(C2N(c3ccc(F)cc3)C(=O)C3CCCN32)cc(OC)c1OC (stereo not given) | 0.2% | 14% | -8% | -2% | nt | -3% | nt | -6%
O=C1CS/C(=N/N=C/c2ccccc2OS(=O)(=O)c2ccccc2)N1 | -18% | -2% | 30% | -10% | 2% | -16% | -7% | -2%
CC(C)CC(=O)Nc1sc2c(c1C#N)CC(C)(C)NC2(C)C | 4.4% | -1% | -14% | -1% | 3% | 10µM* | -1% | -14%
COC(=O)c1c(N)n(-c2ccc(OC)c(OC)c2)c2nc3ccccc3nc12 | -1.6% | nt | nt | 4% | 2%[46.1 µM] | nt | -27%[46.1 µM] | -2%
CC1CCN(S(=O)(=O)c2ccc3c(c2)c(=O)c(C(=O)NC(C)c2ccccc2)cn3C)CC1 (stereo not given) | -7.1% | nt | nt | ? | 18%[46.1 µM] | nt | 4%[46.1 µM] | -15%
COc1ccccc1CNC(=O)Nc1ccc2c(c1)N(C)C(=O)c1ccccc1S2 | -4.0% | nt | nt | -3% | -2%[46.1 µM] | nt | 5%[46.1 µM] | -29%
CCOC(=O)Cc1csc(NC(=O)c2ccc(NC(C)=O)cc2)n1 | -5.3% | -6% | 4% | -1% | 5% | 5% | 0% | -12%
O=C(O)c1ccc(Nc2nc3ccccc3n3cnnc23)cc1 | 0.6% | nt | nt | -8% | nt | nt | ? | -4%
O=C(Nc1nccs1)c1ccc(Br)c(S(=O)(=O)N2CCOCC2)c1 | -4.0% | 4% | 4% | -14% | -15% | 5% | -8% | ?
O=C(NCCCCNC(=O)c1ccc(Br)cc1)c1ccc(Br)cc1 | nt | -2% | -5% | nt | 22%[46.1 µM] | 5% | 26%[46.1 µM] | 34%[activator]
O=C1c2[nH]nc(-c3ccccc3O)c2C(c2cccc(Br)c2)N1Cc1ccncc1 (stereo not given) | 0.4% | nt | nt | 0% | ? | nt | ? | 10%
O=C(CN1C(=O)NC2(CCCC2)C1=O)NCC1CCCO1 (stereo not given) | nt | 3% | 15% | nt | 13% | nt | 14%[46.1 µM] | 5%

Shown with each value named: three of the compounds above.
O=C(Nc1nccs1)c1ccc(Br)c(S(=O)(=O)N2CCOCC2)c1
  Cruzain inh Det: -4.0% | SARS PLP yeast: 4% | RE007 growth inh: 4% | Cruzain inh noDet: -14% | Lassa entry inh: -15% | NS1 inh: 5% | Marburg entry inh: -8% | 2A StopGo: ?

O=C(NCCCCNC(=O)c1ccc(Br)cc1)c1ccc(Br)cc1
  Cruzain inh Det: nt | SARS PLP yeast: -2% | RE007 growth inh: -5% | Cruzain inh noDet: nt | Lassa entry inh: 22%[46.1 µM] | NS1 inh: 5% | Marburg entry inh: 26%[46.1 µM] | 2A StopGo: 34%[activator]

O=C1c2[nH]nc(-c3ccccc3O)c2C(c2cccc(Br)c2)N1Cc1ccncc1 (stereo not given)
  Cruzain inh Det: 0.4% | SARS PLP yeast: nt | RE007 growth inh: nt | Cruzain inh noDet: 0% | Lassa entry inh: ? | NS1 inh: nt | Marburg entry inh: ? | 2A StopGo: 10%

Bioassay records as filed in PubChem BioAssay.
